miR-21 FLuc: raises the signal of a miR-21 reporter; 340,000 tested, under 10 active; AID 2288; Potency, µM (titrated, usually from 38.3 µM), for inactives: at the top dose reporter change, positive = more light; HeLa miR-21 FLuc reporter, luciferase, 48 h; active = well fitted rising curve with a large enough effect; inconclusive = small, poorly fitted or top-dose-only effect; inactive = no such curve, though single readings can be large or run the other way;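 further: % of control where 0% means no effect; miR-21 action dims this reporter so a rising signal means less miR-21 action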
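Compounds were titrated across several concentrations (up to approximately 40 uM) and incubated 48 hours with HeLa miR-21-FLuc reporter cells (miR-21 target sequence downstream of FLuc, endogenous miR-21). Readout was firefly luciferase luminescence after lytic detection reagent.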
GLA inh pH 4.5: alpha-galactosidase A (human) inhibition, pH 4.5; P06280; purified enzyme, 4-MU-alpha-Gal fluorescence, pH 4.5; activity change, negative = inhibition, % at 105 µM; 230,000 tested, under 10 active; AID 1467; inconclusive = small, poorly fitted or top-dose-only inhibition, or a rising curve; inactive = flat fitted curve, though single readings scatter; no compound was filed as active;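 further: 0% = full activity with enzyme and -100% = basal without enzyme; dose as in the result columns while the protocol names 77 µM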
Rango release inh: inhibition of RanGTP-driven Rango-importin beta dissociation | O95149+P62826 | Biochemical FRET Rango-importin beta, RanGTP-induced dissociation | Potency, µM (series often up to 46.1 µM), for inactives: at the top dose activity change, negative = inhibition | hit rate 0.071% among 340,000; active means falling FRET ratio curve, often poorly fitted, with flat reads before Ran was added; inconclusive means other falling curves, or compound fluorescence or quenching; inactive means flat or rising ratio curve;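 further: potency means the concentration at half of the fitted maximal effect; % of control where 0% means no effect; nearly all actives have a fitted effect of over 45% in size; -100% = wells without RanGTP and RCC1; the record marks most hits as doubtful in a second field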
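Rango/importin beta premix (0.1/0.25 uM final), PBS + 1 mM DTT + 0.02% Tween-20 + 0.1% BSA; cpd 5 min RT; FRET pre-read; + RanGTP-RCC1 (0.6 uM Ran, 2 mM GTP, 0.2 uM RCC1); 45 min RT; FRET post-read, ex 430, em 486/530 nm.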
Rango-impB inh: inhibitors of Rango-importin beta complex formation; hit rate 0.031% among 340,000; Potency, µM (titrated, usually from 92.2 µM), inactives show at the top dose inhibition of complex formation; Q14974; AID 540263; Rango CFP/YFP FRET sensor + importin beta, 45 min; active = rising FRET ratio curve, often small or poorly fitted; inconclusive = mostly compound fluorescence or quenching in the first reads; inactive = flat curves in all reads;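 further: potency means the concentration at half of the fitted maximal effect; 0% = DMSO wells and 100% = buffer wells lacking importin beta; nearly all actives have a fitted effect of over 15% in size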
Target sequence (Q14974 whole entry, looked up): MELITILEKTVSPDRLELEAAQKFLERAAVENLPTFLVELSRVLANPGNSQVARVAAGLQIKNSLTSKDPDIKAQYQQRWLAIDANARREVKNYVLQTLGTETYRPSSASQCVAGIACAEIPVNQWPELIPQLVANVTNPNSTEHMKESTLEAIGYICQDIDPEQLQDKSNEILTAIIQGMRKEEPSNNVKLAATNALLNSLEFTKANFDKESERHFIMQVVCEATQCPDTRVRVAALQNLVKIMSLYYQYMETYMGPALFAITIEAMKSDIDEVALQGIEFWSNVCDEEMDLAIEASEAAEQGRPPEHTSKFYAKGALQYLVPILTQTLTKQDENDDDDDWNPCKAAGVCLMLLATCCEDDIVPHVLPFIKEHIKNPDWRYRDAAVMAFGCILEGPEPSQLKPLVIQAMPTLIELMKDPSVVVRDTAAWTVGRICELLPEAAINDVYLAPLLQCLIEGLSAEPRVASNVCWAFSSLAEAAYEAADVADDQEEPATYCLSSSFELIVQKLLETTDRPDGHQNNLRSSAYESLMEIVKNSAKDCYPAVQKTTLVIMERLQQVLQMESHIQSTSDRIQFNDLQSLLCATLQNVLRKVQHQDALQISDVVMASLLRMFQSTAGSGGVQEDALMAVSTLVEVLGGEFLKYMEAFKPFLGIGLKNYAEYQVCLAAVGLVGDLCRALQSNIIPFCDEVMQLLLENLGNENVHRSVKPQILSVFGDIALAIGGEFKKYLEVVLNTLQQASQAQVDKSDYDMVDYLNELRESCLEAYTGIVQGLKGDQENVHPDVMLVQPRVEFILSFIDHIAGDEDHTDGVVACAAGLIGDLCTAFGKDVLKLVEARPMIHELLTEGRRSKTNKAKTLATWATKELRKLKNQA
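Inhibition scored from the CFP 486 nm/YFP 530 nm FRET ratio 45 min after adding 0.125 microM importin beta to 50 nM Rango biosensor preincubated 5 min with compound (room temperature, PBS with DTT, Tween-20, BSA). No-importin wells as positive control.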
An asterisk follows results filed as active; ? = inconclusive; . = not tested or not shown; & = joins results of further samples; [ ] = dose if it differs, or a comment. This is a subset; count on the stated rates, not on these rows.

Values run as follows: miR-21 FLuc, GLA inh pH 4.5, Rango release inh, Rango-impB inh
> COC(C/C=C/C(=O)COCc1ccccc1)OC
  ?, 3, -18%, 0.2%
> CCCCN(C)CCNC(=O)CCn1nc(-c2ccc(Cl)cc2)ccc1=O
  0%, ., 3%, 1.5%
> Cc1cccc(NC(=S)NCCc2ccccn2)c1
  -26%, 5, 1%, -1.6%
> COc1ccc(N(CC(=O)NC2CC3CCC2C3)S(=O)(=O)c2ccc(C)c([N+](=O)[O-])c2)cc1 (stereo not given)
  -2%, ., -2%, -0.5%
> COc1ccc(C(CCNCc2ccc(N(C)C)cc2)c2ccccc2OC)cc1 (stereo not given)
  18%, ., 1%, 5.5%
> Cc1ccc2nc(-c3ccc(O)cc3)oc2c1
  15%, ., -5%, 2.6%
> Cn1cncc1C#Cc1ccc2cc(CCCO)oc(=O)c2c1
  ., ., -11%, 0.0%
> Cc1ccc(C(=O)Nc2scc(-c3ccccc3)c2C(=O)O)cc1
  ., ., 4%, -0.3%
> CCCc1cc(=O)oc2cc3oc(C)c(C)c3cc12
  0%, -3, -17%, -4.2%
> O=C(Nc1cnccn1)Nc1ccccc1Cl
  -11%, -6, -10%, 4.4%
> CC1CCCN(c2ccc(C(=O)Nc3nnc(C4CC4)s3)cc2[N+](=O)[O-])C1 (stereo not given)
  -5%, -5, 6%, 2.2%
> O=C(O)Cc1sc(Nc2ccccc2)nc1-c1ccc(Cl)cc1
  -58%, ?, -20%, -2.0%
> CCOC(=O)[C@H]1[C@H]2COc3ccc(OC)cc3[C@@H]2N2C(=O)[C@H](C)NC(=O)[C@@]12C
  ., ., -7%, 0.7%
> Cc1ccc(C(=O)Nc2ccc(S(=O)(=O)N3CCCC3)cc2)cc1
  -13%, ., -4%, -1.8%
> Cc1ccc(S(=O)(=O)NCCC(=O)N2CCCC(C)C2)cc1 (stereo not given)
  ., ., -8%, 0.9%
> CC(NC(=O)C(C(=O)c1cccc([N+](=O)[O-])c1)n1cc(Cl)ccc1=O)c1ccccc1 (stereo not given)
  -10%, 3, -12%, 1.6%
> Cc1cc(C)cc(C(=O)/C=C2\NC(=O)CS2)c1
  -5%, -20, -2%, ?
> CN(CC(O)CN)CC(O)CN1CCCCC1 (stereo not given)
  0%, 8, -4%, -4.0%
> Cn1c(SCc2nc(-c3ccc(Cl)cc3)no2)nnc1-c1cccs1
  -8%, -7, 0%, -2.1%
> COc1ccc(C(=O)Nc2ccccc2C(=O)NCc2ccco2)cc1OC
  -6%, 11, -3%, -4.0%
> COc1cccc(NC(=S)NNC(=O)C(C)n2nc(C)c([N+](=O)[O-])c2C)c1 (stereo not given)
  -9%, 3, 12%, 2.3%
> CCS(=O)(=O)N1CCCC(C(=O)NCCc2ccc(C)cc2)C1 (stereo not given)
  -4%, -10, 9%, -0.4%
> CCOc1ccc(N(CC(=O)NC2CC3CCC2C3)S(=O)(=O)c2ccc(C)cc2)cc1 (stereo not given)
  0%, ., 27%, 1.0%
> COc1ccccc1C1NC(c2ccccc2OC)C(C)C(=O)C1C (stereo not given)
  -3%, -9, 18%, 2.0%
> CC1(C)Cc2c(c(-c3ccco3)nc3n[nH]c(N)c23)CO1
  -3%, -14, 2%, 0.6%
> Cc1ccc(CN2CCN(Cc3cn(C(C)C)c4ccccc34)CC2CCO)o1 (stereo not given)
  -1%, 6, -13%, 1.1%
> COC(=O)c1ccc(C)c(NC(=O)CCSc2ccc(Cl)cc2)c1
  0%, -2, 0%, 0.3%
> COc1ccc(CC(=O)Nc2nc(-c3cccnc3)cs2)cc1
  -9%, -4, 29%, 7.3%
> COc1ccc(NC(=O)CCc2nc3ccccc3[nH]2)cc1
  -5%, -5, -12%, -0.5%
> COCCCN(C(=S)Nc1cccc(Cl)c1)C(C)c1ccncc1 (stereo not given)
  10%, -3, 6%, 0.7%
> COCCCN(C(=O)c1ccc(N2CCCC2=O)cc1)c1c(N)n(Cc2ccccc2)c(=O)[nH]c1=O
  ., ., -8%, ?
> CC(=O)Nc1ccc(NC(=O)C(C)OC(=O)C2CCCCC2)cc1 (stereo not given)
  ., ., -2%, 0.3%
> CN(C)Cc1c(C(=O)N/N=C/c2ccc(-c3ccccc3)cc2)nnn1-c1nonc1N
  0%, ., 2%, 0.5%
> c1ccc2c(c1)CC1(CCCC1)N=C2N1CCOCC1
  4%, -2, 14%, 0.1%
> O=C(/C=C/c1cnc2ccccc2n1)NC12CC3CC(CC(C3)C1)C2
  -54%, -2, 10%, -2.9%
> CC1CN(C(=O)Cn2c(C(F)(F)F)nc3ccccc32)CC(C)O1 (stereo not given)
  1%, 9, -18%, 7.1%
> COCC(C)N1C(=O)Cc2c1nc(N)c1c(N)nc(N3CCN(c4ccccc4F)CC3)c(C#N)c21 (stereo not given)
  -1%, -11[21.1 µM], -4%, 0.0%
> Cc1cccc(-n2c(SCC(=O)N3CC(=O)Nc4ccccc43)nc3ccccc3c2=O)c1
  1%, 5, -11%, -2.1%
> CCc1nccn1CCC(=O)NC1CC(C)(C)Cc2c1cnn2-c1cccc(F)c1 (stereo not given)
  -2%, ., 11%, -1.6%
> CN(Cc1nccs1)C(=O)c1ccc(OC2CCN(Cc3ccccn3)CC2)cc1
  0%, ., 0%, 5.8%
> COc1ccc(NC(=S)N2CCN(c3ccc([N+](=O)[O-])cc3)CC2)cc1OC
  1%, 8, -7%, 0.3%
> CC1=C(C(=O)OCc2ccc3c(c2)OCO3)C(c2ccc(O)c([N+](=O)[O-])c2)NC(=O)N1 (stereo not given)
  25%, -2, 1%, -0.5%
> N#C/C(=C(/O)CSc1n[nH]c(N)n1)c1nc2ccccc2[nH]1
  0%, 5, -23%, -5.3%
> Cc1cc(N2CCOCC2)nc(N)n1
  -3%, 3, 28%, -0.8%
> O=C(NCc1cccnc1)c1noc2c1CCCC2
  1%, 2, 6%, -0.2%
> CCCCNc1c2c(nc3c(-c4ccccc4)c(C)nn13)CCC2
  2%, 2, -15%, 0.0%
> CCC(C)(C)NC(=O)c1cc([N+](=O)[O-])ccc1N1CCOCC1
  -1%, 2, -11%, -0.4%
> COC(=O)c1ccccc1OCCOCCOc1cccc2cccnc12
  0%, 1, 2%, 1.8%
> Cc1ccccc1NC(=O)Nc1cc(S(N)(=O)=O)ccc1C
  -3%, 10, -14%, 1.9%
> COc1ccc(CCCNC(=O)C2CCC(=O)N(CCCN3CCCC3=O)C2)cc1 (stereo not given)
  -1%, ., 4%, 0.0%
> CCC1CCCCN1C(=O)CCNC(=O)Cn1cnc2ccccc2c1=O (stereo not given)
  6%, ., ?, -0.6%
> Cc1cccc(OCC(=O)Nc2nnc(S(=O)(=O)N3CCC(C)CC3)s2)c1
  0%, ., 4%, -1.0%
> COCCCNC(=O)Cn1nnc(-c2ccc(NC(=O)c3ccc(F)cc3)cc2)n1
  -4%, 0, 5%, 0.6%
> CCc1nc(N[C@H](C(=O)O)C(C)CC)c2oc3ccccc3c2n1 (stereo not given in full)
  -2%, 9, -1%, 1.4%
> Cc1nc(-c2nc(-c3c(C(=O)NNC(=O)Nc4ccccc4)noc3C)cs2)cs1
  -19%, -2, -1%, 0.1%
> Cc1ccc(NC(=O)NCCCl)cc1S(=O)(=O)N1CCOCC1
  6%, -6, -7%, 3.7%
> Cc1nc2cc(S(=O)(=O)C(F)(F)F)ccc2s1
  0%, 4, 0%, 0.8%
> CC(C)(C)OC(=O)N1CCC(C(=O)Nc2cccc(C(=O)NCCc3ccccc3)c2)CC1
  ., ., -5%, 1.1%
> Cc1nc(NC(=O)c2ccc(Br)s2)sc1C(=O)N(C)C
  -49%, -2, 2%, 0.1%
> CC(=O)NC1CC2CCCC(C1)N2Cc1ccc(C)cc1 (stereo not given)
  0%, ., 24%, 0.8%

More entries
Values run as follows: miR-21 FLuc, GLA inh pH 4.5, Rango release inh, Rango-impB inh
> COc1cc(C(=O)NNC(=O)c2ccc(S(=O)(=O)N3CCCCC3)cc2)cc(OC)c1OC
  -6%, -8, 3%, -3.0%
> N#Cc1ccc(CN2CCN(C(=O)c3cccc(S(=O)(=O)N4CCCCCC4)c3)CC2)cc1
  ., ., 0%, -1.9%
> Cc1ccc(CC(=O)O/N=C(\N)c2ccccn2)cc1
  -61%, ., -2%, -0.5%
> COc1cc(C(=O)OCC(=O)NCCC2=CCCCC2)ccc1OCC(C)C
  ., ., 8%, 0.8%
> c1ccc(-c2[nH]ncc2CN2CCN(Cc3ccc4c(c3)OCO4)CC2)cc1
  -6%, -16, -3%, 0.3%
> Cc1ccc(S(=O)(=O)N2CCN(C(=O)COC(=O)/C=C/c3ccccc3F)CC2)c(C)c1
  ., ., -4%, -0.8%
> COc1ccc(-n2cc(CN3CCCC3)c(-c3cccc(F)c3)n2)cc1
  -13%, -9, -20%, 2.8%
> COc1ccc(N2CCN(C(=O)c3ccc(Oc4ccc(C(F)(F)F)cn4)cc3)CC2)cc1
  1%, -11, 3%, 0.7%
> O=C(NC(Cc1ccccc1)C(=O)O)c1ccc(S(=O)(=O)N2CCOCC2)cc1 (stereo not given)
  2%, -4, 8%, 4.1%
> COc1ccc(CNc2ncnc3sccc23)cc1
  23%, ., -15%, -1.8%
> COc1ccccc1NC(=O)[C@H](COCc1ccccc1)NC(=O)OC(C)(C)C
  0%, -6, 5%, -0.1%
> Cc1cccc(CSC2=NN3CCCC(=O)N=C3S2)c1
  -53%, -6, -1%, -0.7%
> CN(C)CCCCOc1ccccc1F
  -2%, -2, 1%, 2.2%
> COc1ccc(OC)c(NC(=O)CSc2nnc(N)s2)c1
  -4%, -6, 9%, -0.5%
> Nc1nc(-c2ccccc2)nn1S(=O)(=O)c1ccccc1
  -10%, 4, -7%, -4.0%
> Cc1ccc(Cc2nnc(SCC(=O)Nc3c(C)cccc3C)[nH]c2=O)cc1
  ., ., -1%, -0.3%
> CCOC(=O)C1=C(O)C(=O)N(CCCn2ccnc2)C1c1ccc(OC)cc1 (stereo not given)
  1%, 4, ., .
> CCOC(=O)N1CCN(Cc2cn[nH]c2-c2ccc(-c3ccccc3)cc2)CC1
  -18%, -23, 11%, -0.7%
> CCCCn1c(N)c(N(CC(C)C)C(=O)C(C)SCc2nc3sc(C)c(C)c3c(=O)[nH]2)c(=O)[nH]c1=O (stereo not given)
  ., ., -22%, ?
> CC1(c2nnc(Cc3ccccc3)o2)CC(c2ccccc2Br)=NO1 (stereo not given)
  ., ., 7%, ?
> O=C(/C=C/c1c(F)cccc1Cl)Nc1cccnc1
  -50%, ., -10%, -3.9%
> Cc1cc(C(=O)c2ccc(Cl)cc2)c(NC(=O)CCl)s1
  0%, 1, -3%, -3.2%
> C=CCN=c1scc(-c2ccc(F)cc2)n1/N=C/c1ccccn1
  -13%, -19, -15%, ?
> CN(CC(O)CN1CCOCC1)S(=O)(=O)O (stereo not given)
  1%&-2%, 10&1, 20%&-10%, -0.8%&-5.0%
> COc1ccc(NC(=O)CN(c2ccc([N+](=O)[O-])cc2)S(=O)(=O)c2ccccc2)c(OC)c1
  0%, -3, 7%, 5.4%
> COc1ccc(Cc2nnc(NC(=O)Nc3cccc(OC)c3)s2)cc1
  -9%, ., 1%, 2.9%
> CCc1sc(C(=O)Nc2ccc(F)cc2C)cc1C
  -51%, 6, 2%, 0.4%
> CN1C(C(=O)NCc2ccc(OC(F)(F)F)cc2)CC2Cn3c(nc4cc5ccccc5cc43)C21 (stereo not given)
  11%, -2, -6%, -1.3%
> CCCc1nc(SCC(N)=O)[nH]c(=O)c1CC
  1%, 3, 0%, -0.8%
> Cc1ccc(NC(=O)COc2ccccc2C=O)cc1Cl
  -45%, 0, 10%, 1.5%
> Cc1ccc(Nc2nnc(SCC(=O)NCCN3C(=O)CSC3=O)s2)cc1
  -29%, -5, 1%, -4.7%
